From PubChem
Mtb hypoxia rep – inhibitors of hypoxia-regulated fluorescent reporter in Mycobacterium tuberculosis | M. tuberculosis hypoxia-regulated fluorescent reporter, fluorescence | fluorescence inhibition, % (concentration not given with the values) | 0.1% of 300,000 active | AID 1159583;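 active = 35 to 45% if threefold the growth effect, above 45% if 1.5-fold the growth effect; inactive = the rest, general growth blockers included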;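 also: wells of about 50 µL received 100 nL stock; 0% = vehicle wells and 100% = reference inhibitor wells; whole bacteria with a GFP reporter of the hypoxia response; strong numbers were not always called active; many hits fall short of the cut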
Sa ugtP lethal – growth inhibition of S. aureus ugtP deletion strain; S. aureus RN4220 ugtP deletion, OD600 growth, 16 h; some inactives read as strong as hits; growth inhibition, % (test concentration not listed); 0.54% of 330,000 active;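 active = z-score under -3 and OD600 up to 0.15 on both plates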;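 also: plate controls were untreated wells for no effect and antibiotic for full effect; wells of about 80 µL received 100 nL stock; the first replicate is given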
BJeLR viability – BJeLR cell viability loss; BJeLR (HRASV12) viability, CellTiter-Glo ATP luminescence, 48 h; reference of the scale not given here; inhibition, % (test concentration not listed); 0.17% of 300,000 active; AID 1554;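 active = replicate mean above 50%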;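 also: 50 nL library stock added to about 25 µL; numbers are from one replicate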
Bead autofluor – flagged as autofluorescent in microsphere protease counterscreen; fluorescence intensity (concentration not given with the values); compound autofluorescence counterscreen, microsphere flow cytometry; active compounds read high; 3.1% of 360,000 active;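 active = at least 3 SD above the mean of all compounds, about 16000 in these data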;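 also: 100 nL of 1 mM stock went into each well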
PrP 5UTR inh – suppresses PrP 5' UTR mRNA reporter expression; 0.35% of 340,000 active; cell-based PrP 5' UTR mRNA reporter, plate reader; inhibition, % (no concentration beside the values);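 active = every replicate at 50% or more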;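 also: 0 = median of the neutral control wells; tested in H4 reporter cells; numbers are from one replicate; inactives centre near -14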
RN4220 kill – kills Staphylococcus aureus RN4220. S. aureus RN4220 growth, OD600, 16 h. inhibition, % (concentration not given with the values). 0.33% of 330,000 active;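 active = z-score of -3 or lower and OD600 up to 0.18 on both plates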;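 also: plate controls were untreated cells for no effect and reference antibiotic for full effect; stock transfer was 100 nL into about 80 µL; one replicate is shown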
Mtb hypoxia rep growth – also measured in Mtb hypoxia rep; calls as there; growth inhibition, %; measured here: M. tuberculosis growth (absorbance);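 0% = vehicle and 100% = reference antibiotic; read after six days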
An asterisk follows results filed as active.

Results for O=C(Cc1cccc2ccccc12)Nc1nc(-c2cccc([N+](=O)[O-])c2)cs1 ?
Mtb hypoxia rep: 1.4; Sa ugtP lethal: -9.4; BJeLR viability: -2.1; Bead autofluor: 2059; PrP 5UTR inh: -6.3; RN4220 kill: -6.7; Mtb hypoxia rep growth: -2.0

What do the screens show for `N#CC1=C(O)C(c2ccccc2)n2c1nc(=O)c1ccccc12` (configuration not stated)?
Mtb hypoxia rep: 1.0; Sa ugtP lethal: 2.0; BJeLR viability: 5.6; Bead autofluor: 2414; PrP 5UTR inh: -14.6; RN4220 kill: -2.0; Mtb hypoxia rep growth: 6.6

How did CC(C)CCOc1ccc(C(=O)NCC(c2ccco2)N(C)C)cc1 (configuration not stated) do in these assays?
Mtb hypoxia rep: 6.6; Sa ugtP lethal: 9.8; BJeLR viability: 0.2; Bead autofluor: 4899; PrP 5UTR inh: -19.0; RN4220 kill: 4.1; Mtb hypoxia rep growth: 3.1

Results for O=C(COC(=O)c1cccc(F)c1)NCCC1=CCCCC1 ?
Mtb hypoxia rep: 7.4; Sa ugtP lethal: -1.8; Bead autofluor: 3161; PrP 5UTR inh: -14.8; RN4220 kill: 1.2; Mtb hypoxia rep growth: 5.7

What do the screens show for `Cc1sc(NC(=O)CCCC(=O)O)c(C#N)c1C`?
Mtb hypoxia rep: 7.8; Sa ugtP lethal: 4.8; BJeLR viability: -0.5; Bead autofluor: 9002; PrP 5UTR inh: -11.3; RN4220 kill: 7.0; Mtb hypoxia rep growth: 3.4

How did CCN(CC(=O)Nc1ccc(NC(C)=O)cc1)C(=O)COc1ccc2ccccc2c1 do in these assays?
Mtb hypoxia rep: -5.7; Sa ugtP lethal: 0.2; BJeLR viability: 3.8; Bead autofluor: 4672; PrP 5UTR inh: -2.9; RN4220 kill: 3.0; Mtb hypoxia rep growth: 1.0

How did N#C/C(=C\c1ccc[nH]1)S(=O)(=O)c1ccccc1 do in these assays?
Mtb hypoxia rep: 1.4; Sa ugtP lethal: -13.5; BJeLR viability: -10.2; Bead autofluor: 16572*; PrP 5UTR inh: -75.4; RN4220 kill: 6.5; Mtb hypoxia rep growth: 0.3

What do the screens show for `Cc1ccc(C2NC(=S)NC3=C2N2CCC3CC2)cc1` (configuration not stated)?
Mtb hypoxia rep: 0.2; Sa ugtP lethal: 0.4; BJeLR viability: 2.8; Bead autofluor: 2602; PrP 5UTR inh: -9.9; RN4220 kill: -9.3; Mtb hypoxia rep growth: 9.4

What do the screens show for `C(/C=C/c1ccccc1)=NNc1ccc2nncn2n1`?
Mtb hypoxia rep: 11.5; Sa ugtP lethal: -6.0; RN4220 kill: -0.6; Mtb hypoxia rep growth: 3.1

Results for NS(=O)(=O)c1ccc(NN=Cc2ccc(C(=O)O)cc2)c([N+](=O)[O-])c1 ?
Mtb hypoxia rep: -6.7; Sa ugtP lethal: 8.0; RN4220 kill: 4.7; Mtb hypoxia rep growth: 3.9

How did CCN1CCN(c2ccc(S(=O)(=O)N3CCOCC3)cc2NC(=O)c2ccc(F)cc2Cl)CC1 do in these assays?
Mtb hypoxia rep: -3.1; Sa ugtP lethal: -1.8; BJeLR viability: 3.9; Bead autofluor: 3372; PrP 5UTR inh: -18.3; RN4220 kill: 5.1; Mtb hypoxia rep growth: 3.9

Results for CCCN(CCC)CC(O)COc1ccccc1C(=O)Nc1ccccc1 (configuration not stated) ?
Mtb hypoxia rep: 1.6; Sa ugtP lethal: -4.5; BJeLR viability: 6.0; Bead autofluor: 4468; PrP 5UTR inh: -36.5; RN4220 kill: 3.5; Mtb hypoxia rep growth: 12.9

How did Cc1cc(C)cc(NC(=O)CSc2ccc(-c3ccccn3)nn2)c1 do in these assays?
Mtb hypoxia rep: 13.4; Sa ugtP lethal: 0.0; BJeLR viability: 0.8; Bead autofluor: 6025; PrP 5UTR inh: -0.9; RN4220 kill: 2.4; Mtb hypoxia rep growth: 10.8

How did Cc1ccccc1N1CCN(CC(=O)Nc2ccccc2C(=O)NC2CC2)CC1 do in these assays?
Mtb hypoxia rep: 7.5; Sa ugtP lethal: 13.3; Bead autofluor: 8075; PrP 5UTR inh: -16.5; RN4220 kill: -0.4; Mtb hypoxia rep growth: 9.8

How did CN(Cc1ccccc1)c1nc2c(c(=O)[nH]c(=O)n2C)n1Cc1ccccc1F do in these assays?
Mtb hypoxia rep: -6.3; Sa ugtP lethal: 3.9; BJeLR viability: -2.8; Bead autofluor: 4353; PrP 5UTR inh: -9.1; RN4220 kill: 4.8; Mtb hypoxia rep growth: 11.9

What do the screens show for `COC(=O)[C@H](CCSC)NS(=O)(=O)c1ccccc1Br`?
BJeLR viability: -10.2; Bead autofluor: 3920; PrP 5UTR inh: -4.4

Results for O=C(NCc1cccs1)C1CCN(c2nccs2)CC1 ?
Mtb hypoxia rep: 7.6; Sa ugtP lethal: 4.2; BJeLR viability: -6.6; Bead autofluor: 3933; PrP 5UTR inh: 1.7; RN4220 kill: -2.8; Mtb hypoxia rep growth: 15.2

Results for O=C(CSCc1ccc(Cl)cc1)NCc1ccc2c(c1)OCO2 ?
Mtb hypoxia rep: 10.8; Sa ugtP lethal: 10.8; BJeLR viability: 14.6; Bead autofluor: 4306; PrP 5UTR inh: -12.3; RN4220 kill: -0.5; Mtb hypoxia rep growth: 2.5

How did Nn1cnnc1SCC(=O)Nc1ccc2c(c1)OCCO2 do in these assays?
Mtb hypoxia rep: 3.3; Sa ugtP lethal: 0.5; BJeLR viability: 11.0; Bead autofluor: 7160; PrP 5UTR inh: -31.3; RN4220 kill: 1.0; Mtb hypoxia rep growth: -4.4

How did CCOC(=O)c1sc(=S)n(CC)c1NC(=O)C1CC1 do in these assays?
Sa ugtP lethal: 8.7; BJeLR viability: 1.4; Bead autofluor: 3490; PrP 5UTR inh: -6.0; RN4220 kill: 2.5

Results for O=c1c2ccccc2c(C=Nc2ccc(S(=O)(=O)Nc3ncccn3)cc2)c(O)n1-c1cccc(Cl)c1 ?
Mtb hypoxia rep: -1.4; Sa ugtP lethal: -12.5; BJeLR viability: -1.2; RN4220 kill: 13.8; Mtb hypoxia rep growth: 5.0

What do the screens show for `Cc1nn(CC(=O)Nc2ccc3c(c2)nc2n3CCOC2)c(=O)c2ccccc12`?
Mtb hypoxia rep: -0.9; Sa ugtP lethal: -3.7; BJeLR viability: -4.4; Bead autofluor: 21862*; PrP 5UTR inh: -104.1; RN4220 kill: 0.1; Mtb hypoxia rep growth: 13.9

How did O=C(CSc1nnc(Cc2cccs2)n1Cc1ccco1)Nc1ccc(Cl)cc1Cl do in these assays?
Mtb hypoxia rep: -10.3; Sa ugtP lethal: -24.7; BJeLR viability: 10.7; Bead autofluor: 9483; PrP 5UTR inh: -15.7; RN4220 kill: 0.7; Mtb hypoxia rep growth: -3.8

Results for O=C(O)c1ccc2c(=O)n3c(nc2c1)/C(=C/c1ccccc1Br)CC3 ?
Mtb hypoxia rep: 13.5; Sa ugtP lethal: -4.1; BJeLR viability: 5.2; Bead autofluor: 3818; PrP 5UTR inh: -19.5; RN4220 kill: 5.3; Mtb hypoxia rep growth: 2.4

What do the screens show for `S=C(NCCc1ccc(Cl)cc1)Nc1ccc(Cl)cc1Cl`?
Mtb hypoxia rep: 1.7; Sa ugtP lethal: 98.7*; BJeLR viability: -6.8; Bead autofluor: 2424; PrP 5UTR inh: -24.1; RN4220 kill: 100.3*; Mtb hypoxia rep growth: 8.3

How did CCNCc1cc(Cl)cc(OC)c1OC(C)C do in these assays?
Mtb hypoxia rep: 0.8; Sa ugtP lethal: -4.9; BJeLR viability: 9.3; Bead autofluor: 2078; PrP 5UTR inh: 3.4; RN4220 kill: 1.1; Mtb hypoxia rep growth: 7.9

How did Fc1ccc(CCNC(=S)Nc2ccc(F)c(Cl)c2)cc1 do in these assays?
Mtb hypoxia rep: 2.3; Sa ugtP lethal: -22.5; BJeLR viability: -3.2; Bead autofluor: 6105; PrP 5UTR inh: -42.0; RN4220 kill: -2.1; Mtb hypoxia rep growth: 0.0

Results for c1ccc2c(c1)CCN(c1ncnc3nc[nH]c13)C2 ?
Mtb hypoxia rep: 6.9; Sa ugtP lethal: 8.2; BJeLR viability: 7.4; Bead autofluor: 6085; PrP 5UTR inh: -16.7; RN4220 kill: 2.9; Mtb hypoxia rep growth: 5.2

What do the screens show for `CCOC(=O)c1cc2c(N)c(C(=O)c3ccc(Br)cc3)sc2[nH]c1=O`?
Mtb hypoxia rep: 6.6; Sa ugtP lethal: 11.8; BJeLR viability: 4.1; Bead autofluor: 4509; PrP 5UTR inh: -10.8; RN4220 kill: 5.2; Mtb hypoxia rep growth: -7.9

What do the screens show for `CCc1nnc(NC(=O)C2CC(=O)N(c3ccc(C)cc3)C2)s1` (configuration not stated)?
Mtb hypoxia rep: -8.7; Sa ugtP lethal: -3.5; BJeLR viability: -0.3; Bead autofluor: 15517; PrP 5UTR inh: 6.0; RN4220 kill: -0.3; Mtb hypoxia rep growth: 5.5

What do the screens show for `O=C(Cc1ccc(Cl)cc1)NCCN1CCCC1`?
Mtb hypoxia rep: 2.2; Sa ugtP lethal: 0.0; BJeLR viability: 4.3; Bead autofluor: 4485; PrP 5UTR inh: -3.5; RN4220 kill: -0.9; Mtb hypoxia rep growth: 13.1

What do the screens show for `Cc1cc(C)cc(NC(=O)Cn2nnc(C(=O)NCc3cccs3)c2N)c1`?
Mtb hypoxia rep: -8.5; Sa ugtP lethal: -3.2; BJeLR viability: 2.1; Bead autofluor: 5252; PrP 5UTR inh: 4.3; RN4220 kill: -0.3; Mtb hypoxia rep growth: 5.2

Results for O=C(CN1C(=O)CCSc2ccc(S(=O)(=O)N3CCCC3)cc21)NCc1ccccc1Cl ?
Mtb hypoxia rep: 10.2; Sa ugtP lethal: 2.7; BJeLR viability: 0.5; Bead autofluor: 6041; PrP 5UTR inh: -13.0; RN4220 kill: 4.5; Mtb hypoxia rep growth: -0.8

What do the screens show for `CC(=NNc1ccccc1[N+](=O)[O-])c1ccc([N+](=O)[O-])cc1`?
Mtb hypoxia rep: 20.8; Sa ugtP lethal: 6.9; RN4220 kill: 2.8; Mtb hypoxia rep growth: 0.6

Results for COc1cccc(-c2nc3ccccc3s2)c1O ?
Mtb hypoxia rep: 25.3; Sa ugtP lethal: -0.8; BJeLR viability: -1.2; Bead autofluor: 4302; PrP 5UTR inh: -21.0; RN4220 kill: 3.8; Mtb hypoxia rep growth: 15.9

What do the screens show for `COc1cc(/C=C(\NC(=O)c2ccccc2)C(=O)N2CC3CC(C2)c2cccc(=O)n2C3)cc(OC)c1OC` (configuration not stated)?
Mtb hypoxia rep: 12.0; Sa ugtP lethal: 3.3; BJeLR viability: 9.2; Bead autofluor: 4661; RN4220 kill: 3.7; Mtb hypoxia rep growth: 5.4

Results for Cc1cc(Cl)c2ccccc2n1 ?
Mtb hypoxia rep: -3.8; Sa ugtP lethal: 1.7; BJeLR viability: 4.7; Bead autofluor: 7555; PrP 5UTR inh: -43.9; RN4220 kill: -9.3; Mtb hypoxia rep growth: -1.7

What do the screens show for `CCOC(=O)N1CCN(C(=O)/C=C/c2ccc(OC)cc2)CC1`?
BJeLR viability: -4.3; Bead autofluor: 3131; PrP 5UTR inh: -25.1

Results for Cc1ccsc1C=NN1CCN(Cc2ccccc2)CC1 ?
Mtb hypoxia rep: 8.2; Sa ugtP lethal: 8.1; RN4220 kill: 4.9; Mtb hypoxia rep growth: 3.0

Results for O=C(Cn1cnc([N+](=O)[O-])c1)Nc1ccc(F)c(Cl)c1 ?
Mtb hypoxia rep: 0.1; Sa ugtP lethal: 8.6; BJeLR viability: 18.8; Bead autofluor: 3225; PrP 5UTR inh: -9.1; RN4220 kill: 2.5; Mtb hypoxia rep growth: -4.9

Three compounds picked at random from the list so far:
Results for COc1cccc(-c2nc3ccccc3s2)c1O ?
Mtb hypoxia rep: 25.3; Sa ugtP lethal: -0.8; BJeLR viability: -1.2; Bead autofluor: 4302; PrP 5UTR inh: -21.0; RN4220 kill: 3.8; Mtb hypoxia rep growth: 15.9

What do the screens show for `CCOC(=O)N1CCN(C(=O)/C=C/c2ccc(OC)cc2)CC1`?
BJeLR viability: -4.3; Bead autofluor: 3131; PrP 5UTR inh: -25.1

What do the screens show for `O=C(Cc1ccc(Cl)cc1)NCCN1CCCC1`?
Mtb hypoxia rep: 2.2; Sa ugtP lethal: 0.0; BJeLR viability: 4.3; Bead autofluor: 4485; PrP 5UTR inh: -3.5; RN4220 kill: -0.9; Mtb hypoxia rep growth: 13.1
